High-throughput results (PubChem)
MT1-MMP reporter: inhibitors of MT1-MMP promoter transcription, cell-based, luciferase reporter, luminescence (AID 618) | MT1-MMP promoter luciferase reporter cells, luminescence | calls from a first round at 10 µM; hits with a dose series show EC50 in µM | 0.62% of 87,000 active;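 active = over half of the reporter light lost at 10 µM or EC50 under 50 µM; inactive = the rest and hits that failed the dose series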;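 also: actives suppress MT1-MMP promoter-driven transcription so potencies describe inhibitors; HT1080 fibrosarcoma cells; overnight exposure; toxic or luciferase-blocking compounds were not removed from the actives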
WNV protease inh: inhibitors of WNV NS2B-NS3 protease, primary screen, biochemical, fluorogenic substrate; Genome polyprotein (West Nile virus), P06935; fluorogenic substrate Ex360/Em465; active compounds read low; z-score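 (tested at a level between 10 and 100 µM)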; 0.18% of 65,000 active; AID 577, 2007;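 active = z-score at -3 or under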;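 also: score is relative to mean and spread of the compound wells of a plate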
Target sequence (P06935 1371-1501 limits assumed): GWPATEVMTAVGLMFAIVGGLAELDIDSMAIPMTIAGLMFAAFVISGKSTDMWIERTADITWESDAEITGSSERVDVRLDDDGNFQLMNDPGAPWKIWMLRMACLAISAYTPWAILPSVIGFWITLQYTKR
Target sequence (P06935 1502-1679 limits assumed): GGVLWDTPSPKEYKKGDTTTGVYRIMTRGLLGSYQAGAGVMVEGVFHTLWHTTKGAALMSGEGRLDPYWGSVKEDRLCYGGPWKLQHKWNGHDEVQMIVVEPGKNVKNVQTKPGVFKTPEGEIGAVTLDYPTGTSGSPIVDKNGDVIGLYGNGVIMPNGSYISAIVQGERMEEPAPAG
Hsc70 ATP site: Hsc70 inhibitors, probe displacement, primary screen, biochemical, fluorescence polarization (AID 568); one-dose displacement, % at 20 µM; IC50 in µM for titrated hits; 83,000 tested, under 10 active; Heat shock cognate 71 kDa protein (Homo sapiens); Hsc70 fluorescence polarization, probe displacement; higher % means a stronger effect; strong numbers were not always called active;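 active = displacement above 50% without optical interference and an IC50 on retest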;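 also: ATPase domain with a fluorescein-tagged ATP probe; 0% = vehicle and 100% = excess ADP; read after one hour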
Starred values were filed as active, the others as inactive; i = inactive; nt = not tested or not shown.

SMILES,MT1-MMP reporter,WNV protease inh,Hsc70 ATP site
CCOC(=O)Cc1cc(=O)n2[nH]c(-c3ccccc3)cc2n1,i,nt,1.6%
Cc1ccc(F)cc1NC(=O)Cc1nn(C)c(=O)c2ccccc12,i,-0.56,1.6%
O=C(COC(=O)c1ccc2c(c1)OCCO2)Nc1cc(Cl)ccc1Cl,i,nt,-1.3%
O=C(CCCOc1ccccc1)N1CCN(S(=O)(=O)c2cccs2)CC1,i,nt,6.3%
COc1ccc(NC(=O)CC2Oc3ccccc3NC2=O)cc1 (stereo unspecified),i,0.27,3.0%
Cc1nc2ccc(S(=O)(=O)NC(C(=O)N3CCCC3)C(C)C)cc2s1 (stereo unspecified),i,-0.9,0.7%
Cc1ccc2nc(NC(=O)c3ccc(Cn4cc(Cl)cn4)o3)sc2c1,i,0.66,3.1%
CCOc1cccc(-c2nnc3sc(COc4ccc(Cl)cc4)nn23)c1,i,0.7,-6.4%
COc1ccc(NC(=O)c2ccco2)c(OC)c1,i,0.03,-5.8%
COc1cccc(CNCCNC(=O)c2nonc2N)c1,i,nt,-7.5%
Cc1nc2cc(-c3cccc(F)c3)nn2c(N2CCOCC2)c1C,i,-0.54,-0.8%
N#CCCN(Cc1cccnc1)C(=O)Nc1ccccc1,i,nt,-0.5%
Cc1cccc(NC(=O)Nc2cccc(C)n2)n1,i,-0.67,-6.2%
CC1(C)Cc2nc3oc4c(=S)nc[nH]c4c3cc2CO1,i,-1.08,-5.1%
CCc1ccc2[nH]c(=O)c(C(c3nnnn3Cc3ccco3)N3CCC(C)CC3)cc2c1 (stereo unspecified),i,nt,-0.1%

Complete entries as entered above. Order of screens: MT1-MMP reporter	WNV protease inh	Hsc70 ATP site
Record of Cc1nc2ccc(S(=O)(=O)NC(C(=O)N3CCCC3)C(C)C)cc2s1 (stereo unspecified) = i	-0.9	0.7%
Record of COc1cccc(CNCCNC(=O)c2nonc2N)c1 = i	nt	-7.5%
Record of CCc1ccc2[nH]c(=O)c(C(c3nnnn3Cc3ccco3)N3CCC(C)CC3)cc2c1 (stereo unspecified) = i	nt	-0.1%

(listing goes on)
SMILES,MT1-MMP reporter,WNV protease inh,Hsc70 ATP site
Cn1c(-c2ccccc2)c(CCO)c2ccccc21,i,-0.12,2.9%
CCOc1cccc(NC(=O)C2CC(=O)NC(=Nc3ccccc3)S2)c1 (stereo unspecified),i,-2.04,3.8%
CC(=O)Nc1ccc(C(=O)NC2CCCC2)cc1,i,-0.67,1.4%
CCn1nnc(-c2ccccc2NS(=O)(=O)c2ccc(S(=O)(=O)N(C)C3CCCCC3)cc2)n1,i,nt,-3.9%
CN1CCN(/C(=N\S(=O)(=O)c2ccc(F)cc2)c2ccccc2)CC1,i,0.86,0.7%
COc1ccc(C(C(=O)OC(C)CN(C)C)c2ccccc2)cc1 (stereo unspecified),i,0.08,-4.0%
COc1ccc(C(=O)CSc2cc(C)nc(SCC(=O)c3ccc(C)cc3)n2)cc1,i,nt,0.4%
CC(C)CC(NC(=O)OC(C)(C)C)C(=O)NC(C(=O)N1CCCC1C(N)=O)C(C)C (stereo unspecified),i,0.32,0.6%
O=C1C2CC=C(Cl)CC2C(=O)N1CN(Cc1ccco1)CN1C(=O)C2CC=C(Cl)CC2C1=O (stereo unspecified),i,-0.31,23.5%
COc1cc(NS(=O)(=O)c2ccc(Cl)cc2)c(C(=O)O)cc1OC,i,nt,-1.4%
Cc1cc(Cn2ccnc2)c(C)cc1Cn1ccnc1,i,0.24,2.3%
COc1ccc(-c2c(C#N)c(N)nc3c2CCCC3)cc1OC,i,1.02,0.5%
O=C(C1CCCN(S(=O)(=O)c2cnc[nH]2)C1)N(CCc1ccccc1)Cc1ccccc1 (stereo unspecified),i,0.36,9.7%
O=C(CCCC(=O)OCC(F)(F)C(F)F)Nc1nccs1,i,1.63,-6.4%
O=C(CN1CCC(O)(c2ccc(F)cc2)CC1)NCc1ccc(F)cc1,i,-0.96,-0.1%

Part of the list above in a different format:
> O=C(COC(=O)c1ccc2c(c1)OCCO2)Nc1cc(Cl)ccc1Cl
  MT1-MMP reporter: i | WNV protease inh: nt | Hsc70 ATP site: -1.3%

> O=C(CCCOc1ccccc1)N1CCN(S(=O)(=O)c2cccs2)CC1
  MT1-MMP reporter: i | WNV protease inh: nt | Hsc70 ATP site: 6.3%

The results go on:
SMILES,MT1-MMP reporter,WNV protease inh,Hsc70 ATP site
Cc1cc2c(cc1C)N(CC(=O)N1CCCC1)C(=O)CC(c1ccccc1)=N2,i,1.16,8.1%
CCOC(=O)C1=C(Cn2cnc3ccccc32)NC(=O)NC1c1ccc(Cl)cc1 (stereo unspecified),i,nt,-0.3%
Cc1c(NC(=O)C2CCCNC2=O)c(=O)n(-c2ccccc2)n1C (stereo unspecified),i,0.2,-3.0%
CCOC(=O)COc1ccc(S(=O)(=O)NCc2cccnc2)cc1,i,1.9,-1.8%
O=C(CSc1nnc(C2COc3ccccc3O2)o1)N1CCCc2ccccc21 (stereo unspecified),i,-0.00576,3.9%
Nc1ccc(Nc2ccccc2)c(Cl)c1,i,-0.33,2.9%
O=C(COc1ccccc1)N1CCN=C1c1ccccc1,i,-0.12,3.5%
O=C(C1CCN(S(=O)(=O)c2cccc3nsnc23)CC1)N1CCn2c1nc1ccccc12,i,0.27,1.2%
c1ccc(CNc2nc3ccccc3[nH]2)cc1,i,-0.84,4.6%
COC(=O)Cc1c(C)nc2nc(-c3ccc(Cl)cc3)[nH]n2c1=O,i,nt,4.4%
CC(C)(C)OC(=O)NCCc1nnc(SCc2ccc(Cl)cc2Cl)o1,i,nt,5.5%
COCCOC(=O)C1=C(C)Nc2nc(C)nn2C1c1ccc(F)cc1 (stereo unspecified),i,1.01,-0.5%
CCC(C)C(=O)Nc1ncc2c(n1)CC(c1cccs1)CC2=O (stereo unspecified),i,nt,-0.3%
COc1ccc(-n2c(Cc3cc(=O)[nH]c(=O)[nH]3)nnc2SCC(=O)N2CCCC2)cc1,i,1.31,-3.4%
O=C(Cn1cnc2ccccc21)NCc1ccccc1,i,-0.16,-4.2%
O=c1c(O)c(-c2ccc(O)cc2O)oc2cc(O)cc(O)c12,i,-0.77,52.1%
CC(=O)Nc1ccc(S(=O)(=O)c2ccc(N)cc2)cc1N,i,-1.06,0.7%
NC(=O)c1ccccc1NC(=O)NC1CCCCC1,i,nt,1.7%
COCCCn1c(SCC(=O)Nc2ccc3c(c2)OCCO3)nnc1-c1ccoc1C,i,-1.14,-9.3%
COc1ccc2c(C)c(C(=O)O)oc2c1,i,nt,1.5%
CCOC(=O)C1(P(=O)(c2ccccc2)c2ccccc2)CCC1,i,nt,0.3%
O=C(c1ccccc1)N1CCN(C2C3CC4CC(C3)CC2C4)CC1 (stereo unspecified),i,nt,-7.0%
Cc1cccc(N(C(=O)Nc2ccccc2)C2=NCC(C)S2)c1 (stereo unspecified),i,0.31,1.5%
CCC(C)[C@H](NC(=O)NC1CCN(Cc2ccccc2)CC1)C(=O)OC (stereo partly specified),i,nt,5.5%
COc1ccc(OCCCC(=O)Nc2ccc3c(c2)OCO3)cc1,i,1.22,-7.0%
Nc1c(C(=O)C2CC2)sc2nc(-c3cccs3)cc(C(F)(F)F)c12,i,nt,-98.2%
Cn1c(=O)c2c(nc(SCCN3CCOCC3)n2Cc2cccc3ccccc23)n(C)c1=O,i,-0.71,-1.1%
COc1cccc2cc(C(=O)N3CCN(c4ccc(C)cc4C)CC3)c(=O)oc12,i,0.61,1.6%
Nc1cc(N)nc(SCc2ccccc2)n1,i,0.76,-0.5%
CCOC(=O)c1sc(NC(=O)CSc2nc3c(c(-c4ccc(OC)cc4)c2C#N)CCCC3)c(C#N)c1C,i,nt,-1.3%
COc1ccccc1NC(=O)Nn1cnnc1,i,-0.18,1.0%
CCOC(=O)c1[nH]c2ccc(Br)cc2c1NC(=O)CCN1CCC(C(=O)OCC)CC1,i,-0.49,5.0%
c1ccc(-n2ncc3c(N4CCN(c5ccccn5)CC4)nc(N4CCOCC4)nc32)cc1,i,0.22,3.2%
Cc1ccc(-c2csc3ncnc(OCC(=O)NC(=O)NCc4ccco4)c23)cc1,i,-0.89,-6.5%
O=S(=O)(O/N=C1\CCCc2ccccc21)c1ccccc1,i,nt,7.0%
Cc1ccc(/C=[N+](/[O-])C2SC(=S)N(C)C2(C)C)cc1 (stereo unspecified),i,nt,2.3%
COc1ccc(N(CC(=O)Nc2ccc3c(c2)OCCO3)S(=O)(=O)c2c(C)nn(C)c2C)cc1,i,0.69,0.9%
COC(=O)C(C)Sc1nc2c(cnn2-c2ccccc2)c(=O)[nH]1 (stereo unspecified),i,1.25,7.0%
Cc1nc(SCC(=O)NCc2ccco2)c2c(C)c(C)sc2n1,i,0.53,-1.0%
COc1ccccc1N1C(=O)CC(Sc2nccc(C)n2)C1=O (stereo unspecified),i,-0.23,-13.8%
CC(C)Sc1nc2ccccc2n1CC(N)=O,i,1.33,-9.7%
CC1CCC2(CC1)Nc1ccccc1C(=O)N2c1ccccc1 (stereo unspecified),i,nt,-3.3%
COc1ccc(CC(NC(C)=O)C(=O)NC2CCN(C(=O)Nc3ccc(Cl)cc3)CC2)cc1OC (stereo unspecified),i,nt,-0.3%
O=C(Cc1ccccc1)Nc1nnc(-c2cccs2)s1,i,-0.48,0.9%
O=C(CN1CCC(c2nc3ccccc3[nH]2)CC1)Nc1ccc2c(c1)OCO2,i,1.33,7.6%
Cc1ccc(C(=O)N/N=C2\SCC(=O)N2c2cc(C)ccc2C)cc1,i,nt,1.2%
COc1ccc(O)c(/C=c2/sc3nc4cc(C)c(C)cc4n3c2=O)c1,i,-1.06,-1.0%
CC(C)(C)C(=O)Nc1ccccc1C(=O)Nc1cccnc1,i,-1.43,-2.6%
CCCn1cc(NC(=O)c2cc3n(n2)C(C(F)(F)F)CC(c2ccccc2)N3)cn1 (stereo unspecified),i,0.7,2.2%
Cc1onc(-c2c(F)cccc2Cl)c1C(=O)N1CCc2ccccc2C1,i,0.04,-0.7%
O=C(Nc1cccc(-c2csc(-c3ccccc3)n2)c1)c1cccs1,i,nt,0.8%
O=C1[C@H]2[C@@H](C(=O)N1c1cccc3ccccc13)C1(C(=O)c3ccccc3C1=O)N1CCC[C@@H]21,i,nt,-0.2%
Cc1cc2cc(CNC(=O)c3ccc(S(=O)(=O)N4CCCCC4)cc3)ccc2n1C,i,-1.19,-2.7%
CCSc1nnc(NC(=O)C2C3C=CC(C3)C2C(=O)O)s1 (stereo unspecified),i,nt,2.8%
CCOc1ccc(NC(=O)c2ccccc2O)cc1,i,0.16,5.8%
Cc1ccc(C)c(NC(=O)CSc2nnc(CCNC(=O)OC(C)(C)C)o2)c1,i,nt,-0.4%
COc1ccc(C(=O)Cn2c(NCCO)nc3ccccc32)cc1OC,i,nt,0.8%
O=C(Nc1cc(N2CCOCC2)ncn1)c1ccccc1,i,-1.01,-1.0%
COc1ccc(NC(=O)NCCCN2CCCCC2C)cc1 (stereo unspecified),i,-0.91,-5.9%
COc1ccc(C2(C(F)(F)F)NC(=O)N(C)C(=O)N2C)cc1 (stereo unspecified),i,-0.68,-2.0%

Remaining list, next part:
SMILES,MT1-MMP reporter,WNV protease inh,Hsc70 ATP site
CCC1(C)Cc2ccccc2-c2nc(NCCCO)n(-c3ccccc3)c(=O)c21 (stereo unspecified),i,nt,-0.3%
O=C1/C(=C\c2ccccn2)SC(=S)N1Nc1ncc(C(F)(F)F)cc1Cl,i,nt,0.5%
CC1CCCC(NC(=O)CCn2c(=O)oc3ccccc32)C1C (stereo unspecified),i,0.31,-3.9%
COc1cccc(C2C(C#N)=C(N)Oc3cc(C)oc(=O)c32)c1OC (stereo unspecified),i,-0.51,-7.0%
CCCCCOC(=O)Nc1nnc(CCC)s1,i,-0.68,-1.4%
COc1ccc(/C=C/c2c([N+](=O)[O-])c(=O)n(C)c(=O)n2C)cc1O,i,nt,2.4%
CCOC(=O)C(C)Sc1nnc(Cn2c(=O)sc3ccccc32)n1-c1ccccc1 (stereo unspecified),i,-0.73,-1.0%
COc1cccc2c1N1C(=O)c3c(C(=O)O)cccc3C1CC2(C)C (stereo unspecified),i,-0.84,-5.8%
CC(C)NS(=O)(=O)c1ccc(N2C(=O)c3ccccc3C2=O)cc1,i,nt,4.2%
O=c1nc2n(c3ccc(Br)cc13)CCS2,i,nt,-0.6%
CCC(=NC(C)c1ccccc1)c1c(O)n(C)c(=O)n(C)c1=O (stereo unspecified),i,-0.66,0.9%
COCCn1cnnc1SCC(=O)Nc1ccccc1C(=O)Nc1ccc2c(c1)OCO2,i,-1.14,-6.7%
CS(=O)(=O)N1CCCC(C(=O)NCc2ccccn2)C1 (stereo unspecified),i,0.28,15.2%

Only part of the results is shown (hit frequency here may not be typical).
